Vaccinia stage = blocks a specific stage of Vaccinia orthopoxvirus infection, primary screen, cell-based, single point. activity change (mCherry), % (no concentration beside the values). actives 0.01% (n = 89,000). Vaccinia-infected cells, mCherry/Venus stage reporter fluorescence; hits give low values; some inactives read as strong as hits;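 active = mCherry past -33% and 40 or more points under the early reporter, replicates agreeing; inconclusive = past -33% without that gap or agreement; tested in A549 cells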;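 note: scaled between vehicle wells and reference inhibitor wells; 23 nL library stock went into each well; one replicate is shown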
Vaccinia stage Venus = recorded beside Vaccinia stage, whose call it bears; activity change (Venus), %; measured here: Venus reporter, other viral stage;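 negative = less Venus signal; first of two replicates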
Starred values were filed as active, the others as inactive; ? = inconclusive; . = not tested or not shown. These rows are one share of the data. The share of hits here may be higher or lower than overall.

Results follow in this order: Vaccinia stage | Vaccinia stage Venus
> C[C@H](CO)N1C[C@H](C)[C@H](CN(C)S(=O)(=O)c2ccc(F)cc2)Oc2ccc(NC(=O)Nc3ccc(C(F)(F)F)cc3)cc2C1=O
    -12.9 | -19.3
> C[C@@H]1CN([C@@H](C)CO)C(=O)c2cc(C3=CCCC3)cnc2O[C@@H]1CN(C)C(=O)c1cccnc1
    5.7 | 2.7
> C[C@@H]1CN([C@H](C)CO)C(=O)Cc2cc(NC(=O)Nc3ccc(F)cc3)ccc2O[C@H]1CN(C)Cc1ccncc1
    -0.4 | 2.7
> O=C(Nc1ccccc1Cl)N1C[C@@H]2[C@H](c3ccccc31)[C@@H](CO)N2Cc1ccccc1
    -20.6 | -7.6
> C[C@H](CO)N1C[C@H](C)[C@@H](CN(C)S(=O)(=O)c2cccs2)Oc2ccc(NC(=O)Nc3ccc(F)cc3)cc2C1=O
    11.5 | 2.4
> CCc1cnc(N2[C@H](CO)[C@H](c3ccc(C#CCC4CCCC4)cc3)[C@@H]2C#N)s1
    14.9 | 5.5
> COc1ccc(S(=O)(=O)N(C)C[C@H]2Oc3cc(-c4cccc(F)c4)ccc3S(=O)(=O)N([C@H](C)CO)C[C@H]2C)cc1
    ? | .
> C[C@H](CO)N1C[C@H](C)[C@@H](CN(C)C(=O)NC2CCCC2)Oc2ncc(C#CCN(C)C)cc2C1=O
    14.4 | 8.7
> CCC(=O)Nc1ccc2c(c1)C(=O)N(C)[C@@H]1CC[C@H](CC(=O)NCc3ccccc3)O[C@H]1CO2
    3.9 | 8.5
> COc1ccc(NC(=O)Nc2cccc3c2O[C@H](CN(C)Cc2ccc(-c4ccccc4)cc2)[C@@H](C)CN([C@@H](C)CO)C3=O)cc1
    1.9 | -2.5
> COc1ccc(CN(C)C[C@@H]2Oc3ccc(NC(=O)Nc4ccccc4)cc3CC(=O)N([C@@H](C)CO)C[C@@H]2C)cc1
    ? | .
> CNC(=O)C[C@@H]1CC[C@@H]2[C@H](COc3ccc(NC(=O)Nc4ccccc4OC)cc3C(=O)N2C)O1
    8.9 | 1.6
> C[C@@H]1CN([C@H](C)CO)C(=O)c2cc(NC(=O)Cc3ccccc3)ccc2O[C@H]1CN(C)C
    17.2 | 11.8
> O=C([C@@H]1[C@@H](CO)[C@@H]2Cn3c(ccc(-c4ccccc4F)c3=O)[C@H]1N2C(=O)C1CCC1)N1CCOCC1
    16.6 | 8.6
> C[C@@H]1CN([C@H](C)CO)C(=O)c2cc(NC(=O)c3ccccc3)ccc2O[C@@H](C)CCCCO[C@H]1CN(C)Cc1ccncc1
    -6.1 | -0.3
> COc1ccc(S(=O)(=O)Nc2ccc3c(c2)CC(=O)N([C@@H](C)CO)C[C@H](C)[C@H](CN(C)S(=O)(=O)c2ccc(C)cc2)O3)cc1
    -10.1 | -10.7
> C[C@H](CO)N1C[C@H](C)[C@@H](CN(C)C(=O)Nc2ccc(F)cc2)Oc2c(NC(=O)Nc3cccc4ccccc34)cccc2C1=O
    11.8 | 8.5
> C[C@@H]1CN([C@H](C)CO)C(=O)c2cc(NC(=O)Cc3cn(C)c4ccccc34)ccc2O[C@@H]1CN(C)Cc1ccc(C(F)(F)F)cc1
    -18.2 | -17.5
> C[C@@H](O)C#Cc1ccc([C@H]2[C@H]3CN(CC4CC4)CCCCN3[C@H]2CO)cc1
    41.8 | 22.0
> Cc1ccc(-c2ccc([C@@H]3[C@@H](CO)N4C(=O)CN(C(=O)Cc5ccccn5)C[C@H]34)cc2)cc1
    -17.1 | -9.4
> CCc1csc(N2[C@H](CO)[C@@H](c3ccc(C4=CCCC4)cc3)[C@@H]2C#N)n1
    -7.9 | 10.9
> C/C=C/c1cnc2c(c1)C(=O)N([C@H](C)CO)C[C@H](C)[C@H](CN(C)C(=O)Nc1ccc(F)cc1)O2
    ? | .
> CCCN(C)C[C@H]1Oc2ncc(-c3cccnc3)cc2C(=O)N([C@@H](C)CO)C[C@H]1C
    14.7 | 3.6
> O=C(C[C@H]1C[C@@H]2c3cc(NC(=O)CC4CC4)ccc3O[C@@H]2[C@H](CO)O1)NCc1cccc(F)c1
    6.3 | 9.0
> CCC(=O)N1[C@H](C(=O)Nc2ccccc2)[C@@H](CO)[C@@H]2Cn3c(ccc(-c4ccncc4)c3=O)[C@@H]21
    -31.8 | -5.0
> O=C(C[C@@H]1C[C@@H]2c3cc(NC(=O)Nc4ccc(F)cc4)ccc3O[C@@H]2[C@@H](CO)O1)NC1CCCC1
    10.2 | 14.2
> Cc1ccccc1-c1cnc2c(c1)C(=O)N([C@H](C)CO)C[C@@H](C)[C@H](CN(C)C(=O)CC1CC1)O2
    -2.5 | 8.3
> O=C(C[C@@H]1CC[C@@H]2NC[C@H](O)COC[C@H]2O1)NCCc1ccccc1
    15.1 | 15.3
> Cc1ccccc1-c1ccc2c(c1)O[C@H](CN(C)C(=O)c1ccccn1)[C@H](C)CN([C@@H](C)CO)S2(=O)=O
    -18.7 | -13.3
> C[C@H]1CN([C@@H](C)CO)C(=O)c2cc(-c3cccc(F)c3)cnc2O[C@@H]1CN(C)S(=O)(=O)c1cccc(F)c1
    -32.9 | -24.3
> CN(C)CC(=O)N1CCCCN2[C@H](CO)[C@@H](c3ccc(-c4cccnc4)cc3)[C@@H]2C1
    6.4 | -5.5
> Cc1ccccc1-c1cnc2c(c1)C(=O)N([C@@H](C)CO)C[C@@H](C)[C@H](CN(C)C(=O)c1ccc(F)cc1)O2
    -8.6 | -16.6
> CC(C)NC(=O)N(C)C[C@H]1Oc2ncc(-c3cccc(C#N)c3)cc2C(=O)N([C@@H](C)CO)C[C@H]1C
    19.4 | 4.7
> CCCNC(=O)N1CC(=O)N2[C@@H](CO)[C@H](c3ccc(-c4ccc(F)cc4)cc3)[C@@H]2C1
    0.6 | 3.8
> C/C=C/c1ccc2c(c1)O[C@H](CN(C)C(=O)CN1CCOCC1)[C@H](C)CN([C@@H](C)CO)S2(=O)=O
    18.9 | 13.6
> CO[C@@H]1CN(C)C(=O)c2cc(NS(=O)(=O)c3ccccc3F)ccc2OC[C@@H](C)NC[C@H]1C
    14.6 | 20.1
> N#C[C@@H]1[C@H](c2ccc(-c3ccccc3F)cc2)[C@H](CO)N1C(=O)C1CC1
    -30.3 | -24.7
> Cc1ccc(S(=O)(=O)Nc2ccc3c(c2)C(=O)N([C@H](C)CO)C[C@H](C)[C@H](CN(C)C(=O)Nc2ccc(F)cc2)OCCCC[C@@H](C)O3)cc1
    20.8 | 13.2
> O=C(C[C@@H]1CC[C@@H]2[C@H](COC[C@H](O)CN2S(=O)(=O)c2ccc(F)cc2)O1)N[C@@H]1CCN(Cc2ccccc2)C1
    -13.8 | -3.4
> C[C@H](CO)N1C[C@H](C)[C@H](CN(C)C(=O)c2ccccn2)Oc2cc(C3=CCCC3)ccc2S1(=O)=O
    8.5 | 5.1

For reference, 4 of the compounds above:
Results follow in this order: Vaccinia stage | Vaccinia stage Venus
> O=C(C[C@@H]1CC[C@@H]2NC[C@H](O)COC[C@H]2O1)NCCc1ccccc1
    15.1 | 15.3
> Cc1ccccc1-c1ccc2c(c1)O[C@H](CN(C)C(=O)c1ccccn1)[C@H](C)CN([C@@H](C)CO)S2(=O)=O
    -18.7 | -13.3
> C[C@H]1CN([C@@H](C)CO)C(=O)c2cc(-c3cccc(F)c3)cnc2O[C@@H]1CN(C)S(=O)(=O)c1cccc(F)c1
    -32.9 | -24.3
> CN(C)CC(=O)N1CCCCN2[C@H](CO)[C@@H](c3ccc(-c4cccnc4)cc3)[C@@H]2C1
    6.4 | -5.5

More compounds
Results follow in this order: Vaccinia stage | Vaccinia stage Venus
> C[C@H](CO)N1C[C@H](C)[C@H](CN(C)C(=O)C2CCC2)Oc2ncc(C#Cc3ccccc3F)cc2C1=O
    -6.8 | -8.4
> O=C(C[C@@H]1C[C@@H]2c3cc(NC(=O)c4cccnc4)ccc3O[C@@H]2[C@@H](CO)O1)NCc1ccccn1
    4.7 | -5.4
> C[C@@H]1CN([C@H](C)CO)C(=O)c2cccc(NC(=O)CCCCCC(=O)Nc3ccccc3N)c2O[C@@H]1CN(C)Cc1ccc(Oc2ccccc2)cc1
    ? | .
> C[C@@H]1CN([C@@H](C)CO)C(=O)c2cc(NC(=O)NC3CCCCC3)ccc2O[C@H]1CN(C)Cc1ccc(Cl)c(Cl)c1
    ? | .
> O=C(C[C@H]1CC[C@H](NC(=O)C2CCOCC2)[C@@H](CO)O1)Nc1ccc(-c2ccccc2)cc1
    -19.0 | -20.0
> C[C@H]1CN([C@@H](C)CO)C(=O)c2cc(N(C)C)ccc2O[C@H]1CN(C)C(=O)NC1CCCCC1
    18.8 | 12.9
> N#C[C@H]1[C@H](c2ccccc2C2=CCCCC2)[C@@H](CO)N1C(=O)CN1CCOCC1
    -11.2 | -0.5
> COc1ccc(S(=O)(=O)Nc2cccc3c2O[C@H](CN(C)S(=O)(=O)c2cn(C)cn2)[C@H](C)CN([C@H](C)CO)C3=O)cc1
    -0.9 | 8.4
> C[C@H]1CN([C@@H](C)CO)C(=O)c2cccc(NS(=O)(=O)c3cccs3)c2O[C@@H]1CN(C)C(=O)NC1CCCCC1
    -2.4 | -18.3
> C[C@H]1CN([C@@H](C)CO)C(=O)Cc2cc(NC(=O)Nc3ccc(F)cc3)ccc2O[C@H]1CN(C)S(C)(=O)=O
    9.9 | 18.9
> C[C@@H]1CN([C@H](C)CO)C(=O)CCCn2cc(nn2)CO[C@@H]1CN(C)S(=O)(=O)c1ccccc1F
    12.8 | 16.1
> CC(C)CC#Cc1ccc2c(c1)O[C@@H](CN(C)C(=O)c1cccc(F)c1)[C@H](C)CN([C@H](C)CO)S2(=O)=O
    ? | .
> O=C(N[C@@H]1CC[C@H](CCn2cc(C3CCCCC3)nn2)O[C@H]1CO)c1cccnc1
    8.0 | 4.2
> C[C@@H]1CN([C@H](C)CO)C(=O)c2cccc(NC(=O)Nc3ccc(F)cc3)c2O[C@H]1CN(C)Cc1ccccc1
    -8.5 | -4.6
> C[C@H](CO)N1C[C@H](C)[C@@H](CN(C)C(=O)NC2CCCCC2)Oc2ccc(NC(=O)C3CC3)cc2CC1=O
    16.0 | 6.9
> CCC(=O)Nc1ccc2c(c1)OC[C@H](C)N(C(=O)COC)C[C@@H](C)[C@@H](OC)CN(C)C2=O
    4.1 | 2.5
> C[C@H]1CN([C@@H](C)CO)C(=O)c2cc(NC(=O)Cc3cn(C)c4ccccc34)ccc2O[C@H]1CN(C)C(=O)Nc1ccccc1
    -11.7 | -14.9
> CCCN1C[C@H](C)[C@H](OC)CN(C)C(=O)c2ccc(NC(=O)CC(F)(F)F)cc2OC[C@@H]1C
    -9.5 | -0.2
> C[C@@H]1CN([C@H](C)CO)C(=O)c2cc(NS(=O)(=O)c3ccccc3)ccc2O[C@@H]1CN(C)S(=O)(=O)c1ccccc1
    -10.3 | -10.6
> CCCNC(=O)N1[C@H](C#N)[C@H](c2ccc(-c3cccc(OC)c3)cc2)[C@@H]1CO
    ? | .
> C[C@H]1CCCCO[C@H](CN(C)C(=O)Nc2ccccc2)[C@@H](C)CN([C@@H](C)CO)C(=O)c2cc(NC(=O)CCC(F)(F)F)ccc2O1
    -23.7 | -14.9
> Cc1ccc(S(=O)(=O)Nc2ccc3c(c2)C(=O)N([C@@H](C)CO)C[C@@H](C)[C@@H](CN(C)C(=O)NC(C)C)OCCCC[C@H](C)O3)cc1
    3.5 | -2.0
> COCC#Cc1ccc2c(c1)O[C@H](CN(C)S(=O)(=O)c1ccc(C)cc1)[C@@H](C)CN([C@H](C)CO)S2(=O)=O
    -13.1 | -6.7
> C[C@H](CO)N1C[C@H](C)[C@H](CN(C)Cc2ccc(C(F)(F)F)cc2)Oc2ccc(NC(=O)Cc3ccccc3)cc2C1=O
    ? | .
> CCCNC(=O)[C@H]1[C@H](CO)[C@H]2Cn3c(ccc(-c4ccccc4F)c3=O)[C@@H]1N2C(C)=O
    9.1 | 5.4
> C[C@@H]1CN([C@@H](C)CO)C(=O)CCCn2nncc2CO[C@@H]1CN(C)Cc1ccc(C(=O)Nc2ccccc2N)cc1
    2.0 | 6.2
> C[C@H]1CN([C@@H](C)CO)S(=O)(=O)c2ccc(C3=CCCCC3)cc2O[C@@H]1CN(C)C(=O)CC1CC1
    -32.7 | -21.9
> O=C(C[C@@H]1CC[C@@H]2[C@H](COC[C@H](O)CN2CC2CCOCC2)O1)NCC1CCCCC1
    4.4 | 7.1
> Cc1ccccc1S(=O)(=O)NCC[C@@H]1CC[C@@H](NC(=O)Nc2cccc(Cl)c2)[C@H](CO)O1
    -22.6 | -23.6
> C[C@H]1CN([C@@H](C)CO)C(=O)c2cc(NS(=O)(=O)c3ccc(Cl)cc3)ccc2O[C@@H]1CN(C)CC1CCCCC1
    -6.2 | 2.6
> C[C@H](CO)N1C[C@H](C)[C@H](CN(C)Cc2ccncc2)Oc2ccc(NC(=O)C3CC3)cc2CC1=O
    2.6 | 8.9
> CCC(=O)N(C)C[C@@H]1Oc2ncc(-c3ccccc3C)cc2C(=O)N([C@H](C)CO)C[C@H]1C
    12.5 | 1.4
> C[C@@H]1CCCCO[C@@H](CN(C)Cc2ccc(Cl)c(Cl)c2)[C@H](C)CN([C@@H](C)CO)C(=O)c2cc(N(C)C)ccc2O1
    ? | .
> O=C(NCC[C@H]1CC[C@H](NS(=O)(=O)c2cccc(F)c2)[C@@H](CO)O1)Nc1cc(F)ccc1F
    -16.3 | -10.2
> Cc1noc(C)c1S(=O)(=O)Nc1ccc2c(c1)CC(=O)N([C@H](C)CO)C[C@@H](C)[C@@H](CN(C)Cc1ccccc1)O2
    -4.6 | -9.0
> O=S(=O)(N[C@H]1CC[C@H](CCn2cc(-c3ccccn3)nn2)O[C@H]1CO)c1cccc(F)c1
    -2.1 | 6.1
> C[C@@H]1CN([C@@H](C)CO)C(=O)c2cc(C3=CCCC3)cnc2O[C@@H]1CN(C)C(=O)CN(C)C
    32.5 | 16.8
> CN(C)CC(=O)N1[C@@H](CO)[C@@H](c2ccccc2)C12CN(C(=O)c1cccc(F)c1)C2
    1.9 | -3.5
> COc1ccccc1C(=O)Nc1ccc2c(c1)C(=O)N(C)C[C@@H](OC)[C@@H](C)CN(CC1CC1)[C@@H](C)CO2
    6.4 | 3.9
